Source: PubChem BioAssay (National Center for Advancing Translational Sciences (NCATS))
Six1-Eya2 inh = qHTS Assay for Inhibitors of the Six1/Eya2 Interaction. AlphaScreen GST-Six1/His-Eya2 binding, biochemical; stronger effect = lower value; control for the full effect not named in the record. activity change, % (test concentration not listed). 0.56% of 360,000 active; in the data active = activity change below about -65%; inconclusive = about -30% to -65%; inactive = above about -30%; further: on the % scale 0 is the no-effect control and ±100 the full control effect; compound concentration not given in the record
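GST-Six1 + His-Eya2 (5X stock: 250/500 nM); Tris pH 8.0, 300 mM NaCl, 0.05% BSA, 0.02% Tween 20; GSH donor/Ni acceptor beads; 1 h 37 °C dark; AlphaScreen readout.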
PINK1 modulator = A Quantitative High throughput Screen to Identify Chemical Modulators of PINK1 Expression | PINK1 immunofluorescence, high-content cytometry, 24 h | Potency, µM (top dose mostly 76.6 µM), inactives show at the highest dose activation (PINK1 increase), usual class: activators | 0.2% of 410,000 active; active = well fitted activation curve with a large enough effect; inconclusive = small, poorly fitted or top-dose-only effect; inactive = flat fitted curve, though single readings scatter; cell line not stated here;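 further: potency means the concentration at half of the fitted maximal effect; % of control where 0% means no effect; nearly all actives have a fitted effect of over 65% in size; a mitochondrial uncoupler was the plate control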
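Readout is PINK1 immunofluorescence, quantified alongside mitochondrial, cell and nuclear markers by laser-scanning microplate cytometry. Cells from a stable line were exposed to compound titrations (5 concentrations) for 24 hours, with CCCP controls.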
Sfp inh = qHTS Assay for Inhibitors of Bacillus subtilis Sfp phosphopantetheinyl transferase (PPTase); Potency, µM, for inactives: max response, negative = inhibition, actives largely listed as inhibitors; 3.5% of 310,000 active; 4'-phosphopantetheinyl transferase ffp (Bacillus subtilis), Q9F4F7; Biochemical Sfp PPTase activity, qHTS; active means well fitted inhibition curve with a large enough effect; inconclusive means small, poorly fitted or top-dose-only effect, or another doubt; inactive means no such curve, though single readings can be large or run the other way;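 further: the enzyme is Sfp with the accession as filed and its product quenches rhodamine fluorescence; potency means the concentration at half of the fitted maximal effect; 0% = enzyme reaction without inhibitor and -100% = no enzyme wells; top concentration of the series not given in the record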
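Fluorescence-quenching assay: 15 nM Sfp-PPTase preincubated 15 min at room temperature with compound, then 5 uM rhodamine-CoA and 12.5 uM BHQ-2-labelled YbbR peptide added. Fluorescence (ex 525/em 598 nm) read at start and after 30 min; difference gives rate.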
D2 agonist = Beta-Arrestin HTS for Positive Allosteric Modulators of the Human D2 Dopamine Receptor: Agonists. DiscoveRx PathHunter D2 beta-arrestin, luminescence, 90 min; 100% = 57 uM dopamine signal. activation, % (concentration not given with the values). 0.084% of 360,000 active. AID 624465, 2012; in the data active = activation above about 40%; inconclusive = about 15% to 40%; inactive = below about 15%; further: compound concentration not given in the record; the text of the record calls up to 30% inactive
Target sequence (P14416 whole entry, looked up): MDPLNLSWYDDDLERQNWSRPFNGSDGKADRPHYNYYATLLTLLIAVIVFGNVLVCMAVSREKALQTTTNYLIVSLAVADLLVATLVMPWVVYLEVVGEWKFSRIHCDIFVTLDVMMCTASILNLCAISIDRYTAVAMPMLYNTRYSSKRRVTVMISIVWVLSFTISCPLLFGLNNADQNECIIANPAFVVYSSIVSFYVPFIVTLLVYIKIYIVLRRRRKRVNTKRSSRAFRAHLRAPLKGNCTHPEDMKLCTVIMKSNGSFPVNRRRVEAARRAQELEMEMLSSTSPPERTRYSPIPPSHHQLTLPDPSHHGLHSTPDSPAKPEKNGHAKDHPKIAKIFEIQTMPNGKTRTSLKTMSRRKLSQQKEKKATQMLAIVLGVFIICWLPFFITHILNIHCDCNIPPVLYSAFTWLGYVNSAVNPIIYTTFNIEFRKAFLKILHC
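Agonist mode: compounds alone added to overnight-plated D2 PathHunter cells for 90 min at 37 C, with 57 uM final dopamine (EC100) defining full response. Beta-arrestin recruitment detected by chemiluminescent reagent, read after 1 h at ambient temperature.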
TRPV1 PAM = HTS Assay for Compounds that Act as Potentiators of the Vanilloid Receptor 1; AID 540277, 2011; Transient receptor potential cation channel subfamily V member 1 (Homo sapiens), Q8NER1; TRPV1-expressing cells, Fluo-8 calcium influx, capsaicin EC20 potentiation; host cell line not named in the record; control for the full effect not named in the record; 0.02% of 320,000 active; potentiation, % at 8.33 µM; active means potentiation above 80%; inconclusive means 30% to 80%; inactive means below 30%; further: 0% is about no effect
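Fluo-8 calcium influx in TRPV1-expressing cells, kinetic read (ex 480/em 520 nm). Compound added and read 3 min for agonist activity, followed by capsaicin at EC20 final and 2 min further read for enhancement.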
D2 potentiator = Beta-Arrestin HTS for Positive Allosteric Modulators of the Human D2 Dopamine Receptor: Potentiators; potentiation, % (test concentration not listed); AID 624464, 2012; DiscoveRx D2 beta-arrestin cells, luminescence, 90 min; 100% = 57 uM dopamine signal; 0.23% of 360,000 active; active = potentiation of 50% or more; inconclusive = 30% to 50%; inactive = 30% or less;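 further: compound concentration not given in the record; tested on top of an EC20 dose of dopamine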
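PathHunter D2 cells, attached overnight at 37 deg C, received compound in DMSO plus dopamine at EC20 (50 nM final) for 90 min at 37 deg C. Beta-arrestin recruitment was read as luminescence after 1 h with detection reagent at ambient temperature.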
CtBP-E1A blk = qHTS Assay for Inhibitors of the CtBP/E1A Interaction; activity change, % (concentration not given with the values); AID 651724, 2012; AlphaScreen GST-E1A/His-CtBP binding, 1536-well; stronger effect = lower value; control for the full effect not named in the record; 0.49% of 340,000 active; CtBP / adenovirus E1A interaction (AlphaScreen); in the data active means activity change below about -65%; inconclusive means about -30% to -65%; inactive means above about -30%; further: on the % scale 0 is the no-effect control and ±100 the full control effect
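AlphaScreen with 125 nM GST-E1A and 125 nM His-CtBP (5X stocks) in Tris pH 8.0, 300 mM NaCl, BSA, Tween 20, TCEP. Compounds preincubated 2 h at 37 deg C, then glutathione donor/nickel acceptor beads added for 1 h at 37 deg C in dark.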
Numbers without * were called inactive; ? = inconclusive; . = not tested or not shown; [ ] = remark or other dose.

SMILES	Six1-Eya2 inh	PINK1 modulator	Sfp inh	D2 agonist	TRPV1 PAM	D2 potentiator	CtBP-E1A blk
COc1cc(/C=N/NC(=O)c2cc(-c3ccccc3)nc3ccccc23)ccc1O	-20	12%	18%	-1.8	-4	-19	-14
O=C(c1csc2ccccc12)N1CCN(c2ccccn2)CC1	0	-0.9%	-6%	-3.8	-6	8	-4
COc1ccc(COC(=O)Oc2ccc(CNC(C)=O)cc2OC)c([N+](=O)[O-])c1	-5	-0.6%	.	1.5	-27	-10	0
COc1cc2nc(N(CCCN(C)C)C(=O)c3ccc(S(=O)(=O)N4CCc5ccccc5C4)cc3)sc2cc1OC	-25	-2.5%	.	-0.9	-7	-21	-12
CCCCNC(=O)c1cc2nc3c(c(C(F)(F)F)n2n1)CCc1ccccc1-3	6	10%	12%	2.4	-9	5	5
O=C(NCN1C(=O)C2C3C=CC(C3)C2C1=O)Nc1nccs1 (stereo not drawn)	13	1.7%	26%	0.3	5	2	-4
COc1ccc(CCNC(=O)CN(c2cc([N+](=O)[O-])ccc2OC)S(C)(=O)=O)cc1	6	-0.1%	2%	-6.8	5	-13	3
COc1ccc(C(=O)C2CCCN(C(=O)c3cccc(N(C)C)c3)C2)cc1OC (stereo not drawn)	?	1.3%	2%	14	2	-11	.
O=C(NCc1ccccc1Cl)C1CCN(C(=O)c2ccco2)CC1	-9	-0.8%	17%	-3.1	-16	-9	1
COc1ccc(CSc2nnc(N)s2)cc1F	-4	-1.0%	5%	-4.2	-17	3	4
COc1ccc(C(=O)NC2CC3CCCC(C2)N3Cc2ccccc2)cc1 (stereo not drawn)	6	0.8%	8%	1.5	13	-11	5
Cc1nn(Cc2ccccc2)c(N)c1-c1ccccc1	-5	1.4%	15%	-6.6	2	-19	-1
Cc1[nH]c2ccccc2c1C(=O)COC(=O)C1CCC1	0	-1.1%	3%	-1.5	-6	-11	0
Cc1c(Br)c([N+](=O)[O-])nn1CC(=O)N1CCN(Cc2ccccc2)CC1	2	-1.5%	-17%	1.8	-7	-7	-16
N#CC1=C(N)N(c2ccccc2)C(=O)C1	5	-0.1%	-20%	-1.0	5	13	-2
O=C1CCC(C(=O)N2CCC(O)(c3ccccc3)CC2)CN1CCc1ccccc1 (stereo not drawn)	3	1.5%	18%	-6.9	-3	10	16
COc1ccc(CCNC(=O)c2cc(S(=O)(=O)N3CCOCC3)ccc2F)cc1	-20	0.8%	.	-2.7	-34	-19	11
CCN(c1ccccc1)S(=O)(=O)c1cc(NC(=O)C2CC2)ccc1Cl	-3	0.7%	.	-3.4	.	-2	5
C=CCn1c(O)c(C2=c3ccccc3=NC2=O)sc1=Nc1ccc(O)cc1	?	-1.9%	-13%	-5.8	25	-2	-4
O=c1[nH]cnc(O)c1C(c1ccc(F)cc1)c1c(O)nc[nH]c1=O	13	-0.2%	1%	-0.8	16	-20	.
Cc1occc1-c1nnc(SCC(=O)Nc2ccc(F)cc2)n1Cc1ccccc1	-14	-1.5%	6%	-3.0	-13	-15	-5
Cc1ccc(C)c(N(CC(=O)NC2CCCC2)C(=O)CCCC(=O)Nc2ccccn2)c1	-2	0.4%	14%	0.6	-11	-32	4
COc1cccc(C2=NOC(C(=O)Nc3cc(C)on3)C2)c1 (stereo not drawn)	-1	3.9%	3%	-18	?	1	8
C=C[C@H](Cc1ccccc1)N(Cc1ccccc1)S(=O)(=O)N(Cc1ccccc1)[C@H](C=C)Cc1ccccc1	5	-0.4%	.	-2.5	.	-2	1
CCOC(=O)c1c(NC(=O)/C=C/c2ccc3c(c2)OCO3)sc(C)c1CC	8	8.2%	0%	-4.3	4	-9	14
CC(=O)c1ccccn1	9	-0.3%	.	1.4	-8	-1	4
COc1ccc(Br)cc1CN(C)C(=O)c1cnc(C)cn1	1	-0.3%	10%	-2.2	13	-2	6
O=C(Cc1sc(-c2ccccc2)nc1-c1ccccc1)Nc1ccccc1	0	20%	9%	-1.7	-7	8	5
CC1CC(=O)c2cnc(Nc3ccccc3)nc2C1 (stereo not drawn)	2	-5.1%[38.3 µM]	-5%	-0.2	-6	-5	-2
CCOC(=O)c1cnc2cc(-c3ccc(C)cc3)nn2c1C	6	0.8%	.	-3.4	.	-7	2
COc1ccc(-c2ccc3nnc(SCC(=O)N4CCCC4)n3n2)cc1	-21	1.9%	.	-4.1	1	8	11
COc1ccc(NC(=O)c2cc(S(=O)(=O)N3CCCC3)ccc2C)cn1	8	0.2%	.	-3.2	3	-9	.
Cc1ccc(C(=O)OCC(=O)N2CCCc3ccccc32)cc1C	10	4.5%	.	-1.3	5	-22	-2
CCOC(=O)C1=NN(c2ccccc2)C2(S1)SC(C(C)=O)=C(C)N2c1ccccc1 (stereo not drawn)	-4	0.6%	12%	-6.1	-4	-9	-1
COc1ccc(S(=O)(=O)Nc2cccc3c2O[C@H](CN(C)C(=O)Nc2c(C)noc2C)[C@@H](C)CN([C@H](C)CO)C3=O)cc1	-4	-0.5%	.	1.1	.	-2	1
NC(=O)c1ccc(Cl)c2ccccc12	-17	2.7%	9%	-3.8	11	-2	-17
Cc1cccnc1NC(=O)CNC(=O)COc1ccccc1	2	0.3%	.	1.0	3	-6	5
Cc1ccc(-c2c(C(=O)N/N=C/c3cccc(Cl)c3)nnn2-c2nonc2N)cc1	-6	6.3%	9%	-15	-2	-10	.
Cc1ccc(C)c(-c2cc(C(=O)Nc3cccc(C(=O)O)c3)c3ccccc3n2)c1	14	0.3%	8%	4.0	-3	0	.
O=c1cc(CN(Cc2ccccc2)Cc2ccccc2)c2c(ccc3ccccc32)o1	15	3.8%	.	-4.7	.	-7	8
CC1Oc2ccccc2N(CC(=O)NCCN2CCOCC2)C1=O (stereo not drawn)	13	1.7%	21%	1.8	9	-6	5
CC(=O)Nc1ccc(-n2cc(-c3ccccc3)[nH]c2=S)cc1	2	-1.3%	40µM*	6.0	7	-12	.
Cc1nn(-c2c(Cl)cc(Cl)cc2Cl)c(=O)c2ccccc12	-1	9.1%	9%	-1.9	1	-37	4
CC(C)(O)CC[C@@H](O)[C@](C)(O)C1CC[C@@]2(O)C3=CC(=O)[C@]4(O)C[C@@H](O)[C@@H](O)C[C@]4(C)C3CC[C@]12C (stereo partly drawn)	32	-0.3%	.	3.8	-29	6	47
N#C/C(=C/c1ccc(F)cc1)c1nnc(NC(=O)c2ccccc2)s1	-3	1.3%	2%	0.8	1	-1	-6

Sorted by formula weight (smallest number first): 4 of the compounds above.
SMILES	Six1-Eya2 inh	PINK1 modulator	Sfp inh	D2 agonist	TRPV1 PAM	D2 potentiator	CtBP-E1A blk
N#CC1=C(N)N(c2ccccc2)C(=O)C1	5	-0.1%	-20%	-1.0	5	13	-2
CC(=O)Nc1ccc(-n2cc(-c3ccccc3)[nH]c2=S)cc1	2	-1.3%	40µM*	6.0	7	-12	.
O=C(c1csc2ccccc12)N1CCN(c2ccccn2)CC1	0	-0.9%	-6%	-3.8	-6	8	-4
COc1ccc(S(=O)(=O)Nc2cccc3c2O[C@H](CN(C)C(=O)Nc2c(C)noc2C)[C@@H](C)CN([C@H](C)CO)C3=O)cc1	-4	-0.5%	.	1.1	.	-2	1

(cont.)
SMILES	Six1-Eya2 inh	PINK1 modulator	Sfp inh	D2 agonist	TRPV1 PAM	D2 potentiator	CtBP-E1A blk
COC(=O)[C@]1(Cc2ccccc2)N[C@H](CN(C)S(=O)(=O)c2ccc(OC(F)(F)F)cc2)[C@@H]2C(=O)N(Cc3ccccc3)C(=O)[C@@H]21	-1	0.3%	.	0.9	.	5	1
O=C(/C=C/c1ccccc1Cl)N(Cc1cccs1)C1CCS(=O)(=O)C1 (stereo not drawn)	-3	-1.2%	-6%	-0.8	-19	-6	-4
CSc1ccccc1C(=O)OCC(=O)Nc1cccnc1Cl	4	-0.2%	.	-0.8	.	-21	7
CCCNC(=O)CC(NS(=O)(=O)c1ccc(OC)cc1)c1ccco1 (stereo not drawn)	-1	-1.0%	-28%	4.2	3	4	0
O=C(NCC(O)c1ccc([N+](=O)[O-])cc1)Nc1ccccc1 (stereo not drawn)	-2	1.4%	4%	-2.9	-34	-12	-1
CCOc1cc(CN2CCN(S(=O)(=O)Cc3ccccc3)CC2)ccc1OC	2	1.6%	20%	2.2	10	-4	1
Nc1ccc(-c2ncc(-c3ccccc3)o2)cc1	-12	-1.5%	-12%	2.2	28	-4	-12
Cc1onc(-c2ccccc2)c1CNC(=O)Nc1ccccc1	-5	-0.1%	3%	-4.4	-10	-13	-21
C=CCO/N=C(/CCC)C1=C(N)CC(C)(C)CC1=O	2	7.5%	6%	-3.4	2	-1	4
Cc1nc(N)[nH]c(=O)c1Oc1cccc(C(F)(F)F)c1	26	-1.1%	6%	-3.3	3	-4	24
CCN(CC)S(=O)(=O)c1ccc2c(c1)C(=NO)c1cc(S(=O)(=O)N(CC)CC)ccc1-2	-1	11%	24%	-7.1	9	-8	-26
CC(C)(C)C1N=C(c2ccc3ccccc3c2)OC1=O (stereo not drawn)	5	0.0%	.	-7.4	5	-3	5
O=C(NC1(Cc2ccccc2)CCN(CCc2cccs2)C1=O)c1ccccc1 (stereo not drawn)	-5	-0.5%	.	4.3	-24	-4	6
COc1ccc(C2C(C(=O)NCCCN3CCOCC3)c3ccccc3C(=O)N2c2ccc(OC)cc2)cc1 (stereo not drawn)	3	12%	18%	2.7	-1	-3	2
CC(=O)Nc1ccc(-c2cn3c(n2)SCC3)cc1	-1	3.1%	-1%	-5.0	-12	-8	-11
CC(=O)c1ccccc1C(=O)N1CCC(CCC(=O)NCc2ccc(F)cc2)CC1	-11	2.4%	.	-2.0	.	-11	3
COc1cc(C=NNc2ccccc2)ccc1OC(=O)c1ccccc1	-5	2.4%	.	-5.7	.	-19	-8
COc1ccc(-n2nc(C(=O)N3CCN(Cc4ccc5c(c4)OCO5)CC3)c3ccccc3c2=O)cc1	10	-1.1%	20%	-4.5	14	-7	0
